NOMO-1 viab – NOMO-1 AML cell viability reduction, primary screen, STK33 inhibitor project, CellTiter-Glo luminescence; NOMO-1 AML viability, 72 h; AID 2330, 2010; hit rate 7.5% among 37,000; inhibition, % (no concentration beside the values);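 active means most replicates above 80%; inconclusive means exactly half above 80%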;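 further: wells of about 30 µL received 25 nL stock; 0% = median of vehicle wells and 100% = reference inhibitor level; the first replicate is given; inactives centre near 10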
* = called active by the depositor; ? = inconclusive.

SMILES | NOMO-1 viab
C[C@@H]1CN([C@H](C)CO)C(=O)c2cc(N(C)C)ccc2O[C@@H]1CN(C)S(=O)(=O)c1ccc(F)cc1 | 7
C[C@H](O)CC1=C[C@H](O)[C@@H](C)OC1=O | 10
C[C@@H]1CN([C@@H](C)CO)C(=O)c2cc(NC(=O)CCC(F)(F)F)ccc2O[C@@H]1CN(C)CC1CCCCC1 | 8
O=C(O)CCc1ccc(-c2ccc(Cl)cc2)n1-c1ccc(C(=O)O)cc1 | 14
CCc1ccc(-n2c(SCC(=O)Nc3ccc(F)cc3)nnc2-c2ccncc2)cc1 | 24
C[C@@H]1CN([C@@H](C)CO)C(=O)c2cc(NS(=O)(=O)c3ccccc3)ccc2O[C@H]1CN(C)C | -16
C[C@@H]1CCCCO[C@H](CN(C)Cc2ccc(Cl)c(Cl)c2)[C@@H](C)CN([C@H](C)CO)C(=O)c2cc(NC(=O)NC3CCCCC3)ccc2O1 | 76
CNC[C@H]1Oc2c(NC(=O)Nc3ccc(OC)cc3)cccc2C(=O)N([C@H](C)CO)C[C@H]1C | -3
CCOC(=O)c1c(NC(=O)c2ccc(-c3ccccc3[N+](=O)[O-])o2)sc2c1CCCC2 | -10
C[C@@H]1CCCCO[C@H](CN(C)Cc2ccc(C(=O)O)cc2)[C@@H](C)CN([C@H](C)CO)C(=O)c2cc(NC(=O)NC3CCCCC3)ccc2O1 | -7
COc1ccc(OCc2nnc3n2N=C(c2ccc(OC)c(OC)c2)C(c2ccccc2)S3)cc1 (centres undefined) | 21
C[C@@H]1CCCCO[C@@H](CN(C)C(=O)CCC(F)(F)F)[C@@H](C)CN([C@H](C)CO)C(=O)c2cc(NC(=O)c3ccncc3)ccc2O1 | 9
O=C(CSc1nc2ccccc2c(=O)n1-c1ccc(Cl)cc1)Nc1ccc(Cl)cc1Cl | 16
COc1ccc(NC(=O)N(C)C[C@H]2Oc3ccc(N(C)C)cc3C(=O)N([C@@H](C)CO)C[C@@H]2C)cc1 | 6
CCC(=O)N1C(CC(=O)Nc2ccc(F)cc2)C(=O)NC2CCCCC21 (centres undefined) | 1
C[C@H](CO)N1C[C@H](C)[C@@H](CN(C)Cc2ccc(C(F)(F)F)cc2)Oc2c(NC(=O)c3ccncc3)cccc2C1=O | 16
C[C@H](CO)N1C[C@H](C)[C@@H](CN(C)S(=O)(=O)c2cn(C)cn2)Oc2ccc(NC(=O)Nc3ccc(C(F)(F)F)cc3)cc2C1=O | -26
CN(Cc1n[nH]c(=S)n1C)S(=O)(=O)c1ccccc1 | -11
COc1ccc(NC(=O)N(C)C[C@H]2Oc3ccc(NS(=O)(=O)c4ccccc4)cc3C(=O)N([C@H](C)CO)C[C@H]2C)cc1 | 29
Cc1ccc(S(=O)(=O)Nc2ccc3c(c2)C(=O)N([C@H](C)CO)C[C@@H](C)[C@H](CN(C)CC2CCCCC2)O3)cc1 | 24

Part of the list above in order of formula weight, low to high:
SMILES | NOMO-1 viab
CCc1ccc(-n2c(SCC(=O)Nc3ccc(F)cc3)nnc2-c2ccncc2)cc1 | 24
CNC[C@H]1Oc2c(NC(=O)Nc3ccc(OC)cc3)cccc2C(=O)N([C@H](C)CO)C[C@H]1C | -3
C[C@@H]1CN([C@H](C)CO)C(=O)c2cc(N(C)C)ccc2O[C@@H]1CN(C)S(=O)(=O)c1ccc(F)cc1 | 7
C[C@@H]1CCCCO[C@H](CN(C)Cc2ccc(Cl)c(Cl)c2)[C@@H](C)CN([C@H](C)CO)C(=O)c2cc(NC(=O)NC3CCCCC3)ccc2O1 | 76

(more compounds)
SMILES | NOMO-1 viab
COc1ccc(S(=O)(=O)N(C)C[C@@H]2Oc3ccc(NC(=O)Nc4ccc(F)cc4)cc3C(=O)N([C@@H](C)CO)C[C@@H]2C)cc1 | 60
C[C@H]1CN([C@@H](C)CO)C(=O)Cc2cc(NS(=O)(=O)c3ccc(Cl)cc3)ccc2O[C@H]1CN(C)Cc1ccccc1 | 101*
CCCN(CCC)C(=O)c1cccc2c1-c1ccccc1C2=O | 27
COc1c(O)cc2oc3cc(O)c(CC=C(C)C)c(O)c3c(=O)c2c1CC=C(C)C | 98*
O=C(CN1C(=O)c2ccccc2S1(=O)=O)Nc1ccccc1Br | 35
C[C@@H]1CN([C@H](C)CO)C(=O)c2cc(NC(=O)Cc3ccccc3)ccc2O[C@H]1CN(C)CC1CCCCC1 | 28
O=[N+]([O-])c1ccc(NCCNS(=O)(=O)c2ccc(Cl)cc2)cc1 | -13
Cc1ccc(S(=O)(=O)N(C)C[C@H]2Oc3c(NS(=O)(=O)c4cn(C)cn4)cccc3C(=O)N([C@H](C)CO)C[C@@H]2C)cc1 | 11
C[C@@H]1CN([C@H](C)CO)C(=O)c2cc(NC(=O)CCCN(C)C)ccc2O[C@@H]1CN(C)Cc1ccncc1 | 3
Cc1cc(C(=O)Nc2cccc3c2O[C@@H](CN(C)S(=O)(=O)c2cn(C)cn2)[C@H](C)CN([C@H](C)CO)C3=O)n(C)n1 | 0
C[C@H](CO)N1C[C@H](C)[C@H](CN(C)S(=O)(=O)c2cn(C)cn2)Oc2ccc(NC(=O)Cc3cn(C)c4ccccc34)cc2CC1=O | 18
COc1cccc(NC(=O)CSc2nnc(-c3ccccc3)n2-c2ccc(F)cc2)c1 | 17
C[C@@H]1CN([C@H](C)CO)C(=O)c2cc(NC(=O)NC3CCCCC3)ccc2O[C@H]1CN(C)Cc1ccc(C(=O)O)cc1 | -2
COc1ccc(S(=O)(=O)N(C)CC(=O)Nc2cccc(C(F)(F)F)c2)cc1OC | 28
Cc1ccc2nsnc2c1NC(=O)COc1ccc([N+](=O)[O-])cc1 | 27
C[C@@H]1CN([C@H](C)CO)C(=O)Cc2cc(NC(=O)Nc3ccc4c(c3)OCO4)ccc2O[C@H]1CN(C)CC1CCCCC1 | 9
O=c1cc(-c2ccc(O)cc2)oc2c(C3O[C@H](CO)[C@@H](O)[C@H](O)[C@H]3O)c(O)cc(O)c12 (some centres undefined) | 34
C[C@@H]1CN([C@@H](C)CO)C(=O)c2cc(NC(=O)Cn3cnnn3)ccc2O[C@@H]1CN(C)Cc1ccc(-c2ccccc2)cc1 | 12
C[C@H]1CN([C@@H](C)CO)C(=O)Cc2cc(NC(=O)Cn3cnnn3)ccc2O[C@@H]1CN(C)C(=O)NC1CCCCC1 | -3
O=C(c1ccccc1)C(Sc1nc2ccccc2[nH]1)c1ccccc1 (centres undefined) | -4

Compounds from the list above that have an NH in an aromatic ring:
SMILES | NOMO-1 viab
CN(Cc1n[nH]c(=S)n1C)S(=O)(=O)c1ccccc1 | -11
O=C(c1ccccc1)C(Sc1nc2ccccc2[nH]1)c1ccccc1 (centres undefined) | -4

Next results.
SMILES | NOMO-1 viab
O=C(COc1ccccc1[N+](=O)[O-])Nc1cc(Cl)ccc1C(=O)O | 13
Cc1cc(C)nc(NC(=S)c2ccc(NC(=O)/C=C/C(=O)O)cc2)n1 | -23
O=C1COc2ccc(S(=O)(=O)NCCOc3ccccc3)cc2N1 | 14
CCN(CC)C(=S)C(=O)Nc1cc(C(F)(F)F)cc(C(F)(F)F)c1 | 109*
COc1ccc(S(=O)(=O)N(C)C[C@H]2Oc3ccc(NC(=O)Nc4ccc(C(F)(F)F)cc4)cc3C(=O)N([C@@H](C)CO)C[C@H]2C)cc1 | 60
COc1ccc(NC(=O)Nc2ccc3c(c2)CC(=O)N([C@H](C)CO)C[C@@H](C)[C@@H](CN(C)Cc2ccc(C(=O)Nc4ccccc4N)cc2)O3)cc1 | 90*
O=C(COc1ccccc1)NC(=S)Nc1cccc(NC(=O)c2ccccc2Cl)c1 | 35
COc1ccc(-c2cc(=O)c3ccc(OC)cc3o2)cc1 | -6
CNC[C@H]1Oc2ccc(NC(=O)Nc3ccc4c(c3)OCO4)cc2C(=O)N([C@@H](C)CO)C[C@H]1C | 9
COc1ccc(NC(=O)Nc2ccc3c(c2)C(=O)N([C@@H](C)CO)C[C@@H](C)[C@@H](CN(C)C(=O)Nc2ccc(OC)cc2)O3)cc1 | -3
COc1ccc(OC)c(N(CC(=O)Nc2c(C)cc(C)cc2C)S(C)(=O)=O)c1 | -4
COc1cc(S(=O)(=O)NCc2cccnc2)ccc1Br | -3
COc1cc(/C=C/C(=O)N2CCC=CC2=O)cc(OC)c1OC | 119*
Cc1ccc(CC(c2nc3ccccc3[nH]2)C(C)c2nc3ccccc3[nH]2)cc1 (centres undefined) | 91*
Cc1noc(C)c1S(=O)(=O)Nc1ccc2c(c1)C(=O)N([C@H](C)CO)C[C@H](C)[C@H](CN(C)Cc1ccccc1)O2 | 11
C[C@@H]1CCCCO[C@H](CN(C)C(=O)Nc2ccccc2)[C@@H](C)CN([C@H](C)CO)C(=O)c2cc(NC(=O)c3ccccc3)ccc2O1 | -8
Cc1nn(Cc2nnc(SCc3c(Cl)cccc3Cl)o2)c(C)c1Br | 21
C[C@H]1CN([C@@H](C)CO)C(=O)c2cc(NC(=O)CCCN(C)C)ccc2O[C@H]1CN(C)CC1CC1 | -4
CC(C)(C)c1cc(CNCCS(=O)(=O)O)c(O)c(C(C)(C)C)c1 | 15
C[C@@H]1CN([C@H](C)CO)C(=O)c2cc(NC(=O)CCN3CCOCC3)ccc2O[C@H]1CN(C)C(=O)Nc1ccc(F)cc1 | 20

Quoted from the listing:
In NOMO-1 viab, `COc1ccc(OC)c(N(CC(=O)Nc2c(C)cc(C)cc2C)S(C)(=O)=O)c1` is listed with -4
In NOMO-1 viab, `O=C(COc1ccccc1[N+](=O)[O-])Nc1cc(Cl)ccc1C(=O)O` is listed with 13

Next section:
SMILES | NOMO-1 viab
CCCCCCC(=O)OC1OC(CO)C(O)C2OCC(C(=O)O)COC12 (centres undefined) | 4
C[C@@H]1CN([C@H](C)CO)C(=O)c2cc(NC(=O)NC3CCCCC3)ccc2O[C@@H]1CN(C)S(C)(=O)=O | -7
C[C@@H]1CN([C@@H](C)CO)C(=O)c2cccc(NC(=O)Nc3cccc4ccccc34)c2O[C@H]1CN(C)C(=O)Nc1ccc(C(F)(F)F)cc1 | 44
C[C@@H]1CN([C@H](C)CO)C(=O)Cc2cc(NC(=O)Nc3cccc4ccccc34)ccc2O[C@@H]1CN(C)C(=O)Nc1ccccc1 | 10
NC(=O)c1ccc(NCc2cccnc2)c([N+](=O)[O-])c1 | 28
C[C@H](CO)N1C[C@H](C)[C@H](CN(C)S(=O)(=O)c2ccccc2)Oc2c(NC(=O)C3CCCCC3)cccc2C1=O | 26
C[C@@H]1CN([C@@H](C)CO)C(=O)Cc2cc(NC(=O)CCN3CCOCC3)ccc2O[C@@H]1CN(C)S(=O)(=O)c1cccs1 | -18
C[C@@H]1CN([C@H](C)CO)C(=O)c2cccc(NC(=O)C3CCCCC3)c2O[C@@H]1CN(C)C | -6
Cc1ccc(S(=O)(=O)NC(C)(C)CSc2ccccn2)cc1 | 1
COc1ccc(NC(=O)Nc2ccc3c(c2)C(=O)N([C@@H](C)CO)C[C@@H](C)[C@@H](CN(C)S(=O)(=O)c2cccs2)O3)cc1 | 9
Cc1cc(C(=O)Nc2cccc3c2O[C@H](CN(C)Cc2ccc(C(F)(F)F)cc2)[C@@H](C)CN([C@H](C)CO)C3=O)n(C)n1 | ?
Cc1noc(C)c1S(=O)(=O)N(C)C[C@@H]1Oc2ccc(NS(=O)(=O)c3cccs3)cc2CC(=O)N([C@H](C)CO)C[C@@H]1C | -18
COc1ccc(Cl)cc1NC(=S)NCc1ccco1 | 5
O=S1(=O)NC(=NCCOCc2ccc(Cl)cc2)c2ccccc21 | 16
O=C(NCCCN1CCOCC1)c1cc2cc([N+](=O)[O-])ccc2oc1=O | 19
CN(C)Cc1c(C#N)c2ccccc2n1C | -13
COc1ccc(CN(C)C[C@H]2Oc3ccc(NC(=O)NC(C)C)cc3C(=O)N([C@@H](C)CO)C[C@@H]2C)cc1 | 5
C[C@H]1CN([C@@H](C)CO)C(=O)Cc2cc(NC(=O)Cc3cn(C)c4ccccc34)ccc2O[C@@H]1CN(C)C(=O)NC1CCCCC1 | 5
C[C@H](CO)N1C[C@H](C)[C@H](CN(C)C(=O)Nc2cccc3ccccc23)Oc2c(NC(=O)C3CC3)cccc2C1=O | -8
C[C@H]1CN([C@@H](C)CO)C(=O)c2cccc(NC(=O)Nc3ccc(F)cc3)c2O[C@@H]1CN(C)S(=O)(=O)c1cn(C)cn1 | -14
C[C@@H]1CN([C@H](C)CO)C(=O)c2cc(NC(=O)Cn3cnnn3)ccc2O[C@H]1CN(C)Cc1ccc(-c2ccccc2)cc1 | 17
COC(=O)/C=C/c1ccc(OC)c(/C=C/C(C)(C)O)c1 | 21
Cc1nc(C)n(CC(O)COc2ccc3c(c2)CCC3)n1 (centres undefined) | 15
C[C@@H]1CN([C@@H](C)CO)C(=O)c2cc(NC(=O)Nc3ccc(C(F)(F)F)cc3)ccc2O[C@H]1CN(C)S(=O)(=O)c1ccccc1 | 75
COC(=O)C(C)N(C#N)c1nc(C)nc(C)n1 (centres undefined) | 113*
Cc1ccc(S(=O)(=O)N(C)C[C@@H]2Oc3ccc(NC(=O)C4CCCCC4)cc3C(=O)N([C@H](C)CO)C[C@@H]2C)cc1 | 9
CC1Cc2ccc3c(c2C(O)C1)C(=O)c1cccc(O)c1C3O (centres undefined) | 15
CC(=O)O[C@H]1[C@H](Oc2ccccc2COC(=O)C2(O)C=CCCC2=O)O[C@H](CO)[C@@H](O)[C@@H]1O (some centres undefined) | 26
Cc1ccc(OCC(=O)Nc2cccc3c2C(=O)NC3=O)cc1C | 8
COc1ccc(CCC(=O)CCc2ccc(OC)cc2)cc1 | 16
C[C@H](CO)N1C[C@H](C)[C@H](CN(C)C(=O)Nc2ccc(C(F)(F)F)cc2)Oc2ccc(NC(=O)CCN3CCOCC3)cc2C1=O | -25
C=C[C@](C)(O)CC/C=C(\C)C(=O)O[C@@H]1[C@@H]2O[C@]2(C)[C@H]2[C@H](O[C@@H]3O[C@H](CO)[C@@H](O)[C@H](O)[C@H]3O)OC=C[C@@]12OC(=O)/C(C)=C/CC[C@](C)(O)C=C | 1
Cc1noc(C)c1S(=O)(=O)Nc1ccc2c(c1)C(=O)N([C@@H](C)CO)C[C@@H](C)[C@@H](CN(C)CC1CCCCC1)O2 | 14
C[C@H]1CN([C@@H](C)CO)C(=O)c2cccc(NC(=O)c3ccncc3)c2O[C@@H]1CN(C)S(=O)(=O)c1ccc(Cl)cc1 | -7

Screening data from PubChem BioAssay.

Not all compounds are listed; rates above refer to the full screens.
